# Screening results from PubChem.
# A1 inh: caspase 3/7 activation in MEF A1-2A-BIM cells, primary screen, A1 inhibitor project, cell-based, luminescence, HTS; Caspase-Glo 3/7 luminescence, 3 h; percent of clofoctol response, vehicle zero; caspase activation, % (test concentration not listed); 330,000 tested, 0.066% active;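 active means over half of replicate activation scores above 10%, or exactly half above 10 with the replicate mean above 10; inconclusive means replicate mean below 10 yet half the replicates above 10; inactive means over half of replicates below 10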;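 further: wells of about 30 µL received 50 nL stock; many hits fall short of the cut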
# LANA-H2B inh: blockers of LANA interaction with H2A/H2B – biochemical, FP readout, HTS, primary screen. Protein LANA1 (Human herpesvirus 8 type P (isolate GK18)), Q9QR71. cell-free LANA-H2A/H2B peptide, fluorescence polarization. inhibition, % (no concentration beside the values). 320,000 tested, 0.6% active. AID 2629, 2010; in the data active means inhibition mostly above about 10%, no sharp cut-off; inactive means mostly below about 6.7%;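 further: stock transfer was 7.5 nL into about 10 µL; 0% = median of vehicle wells and 100% = median of positive control wells; one replicate is shown; the record names a cut of 25% in any replicate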
# E coli growth: E. coli growth inhibition, primary screen, OD600. 330,000 tested, 0.21% active. OD600 absorbance (concentration not given with the values). AID 1053175, 2014. Escherichia coli growth, 23 h; stronger effect = lower value;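 active means OD600 absorbance below the run mean of sample wells minus 3.6 SD, in any replicate, cut at about 0.56 in these data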;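 further: stock transfer was 300 nL into about 60 µL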
# HNF4A DNA FP: change in binding of human HNF4A to DNA, primary screen, biochemical, fluorescence polarization, FITC-DNA. 360,000 tested, 0.3% active. activity change, % at 10 µM. 1 h; in the data active means activity change above about 30%, passing the limit was not always enough;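 further: controls were the assay level and a saturating level of protein; the project sought stronger binding though the title names inhibitors; some compounds called inactive have numbers as strong as hits; positive values seem to mean higher polarization but the record does not say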
# UCH37 inh: inhibitors of human UCH37 deubiquitinase, primary screen, biochemical, Ub-AMC cleavage, fluorescence. purified proteasome/UCH37. inhibition, % (no concentration beside the values). 330,000 tested, 0.33% active. Ubiquitin carboxyl-terminal hydrolase isozyme L5 (Homo sapiens), Q9Y5K5;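 active means mean of two replicates above 20%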;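 further: 0% = compound-free wells with enzyme and 100% = wells lacking proteasome; stock transfer was 100 nL into about 20 µL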
# Target sequence (Q9Y5K5 whole entry, looked up): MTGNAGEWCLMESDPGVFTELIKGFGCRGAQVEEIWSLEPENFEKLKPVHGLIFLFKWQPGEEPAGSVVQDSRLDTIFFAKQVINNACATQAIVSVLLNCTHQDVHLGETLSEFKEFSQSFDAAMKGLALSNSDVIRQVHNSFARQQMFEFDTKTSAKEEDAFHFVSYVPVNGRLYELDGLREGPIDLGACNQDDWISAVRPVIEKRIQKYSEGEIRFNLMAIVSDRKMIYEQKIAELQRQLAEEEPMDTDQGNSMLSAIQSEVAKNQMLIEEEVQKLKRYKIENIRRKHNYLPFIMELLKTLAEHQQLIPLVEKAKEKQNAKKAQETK
#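 Test system – human UCH37 enzyme supplied as purified proteasome complex · Incubation – 30 min preincubation with enzyme, 25 min cleavage at room temperature · Detection – AMC fluorescence from Ub-AMC cleavage, excitation 355 nm, emission 460 nm · Benchmarks – no-proteasome wells (full inhibition) and compound-free wells (no inhibition)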
# Vif A3G: inhibitors of Vif binding to APOBEC3G peptide, primary screen, biochemical, TR-FRET, GST-Vif 1-94, biotin-A3G peptide, dose response retest (AID 1117319) | inhibition, %; hits with a dose series show IC50 in µM | 260,000 tested, 0.57% active | TR-FRET GST-Vif / biotin-A3G peptide binding; higher % means a stronger effect; test concentration not given here; strong numbers were not always called active | Virion infectivity factor (Human immunodeficiency virus type 1 group M subtype B (isolate …;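 active means above the screen mean plus three standard deviations and confirmed in dose response; inconclusive means results disagree or hit not tested in dose response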;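 further: Vif residues 1-94 fused to GST binding biotinylated APOBEC3G peptide 110-148; 0% = full assay without inhibitor and 100% = GST in place of GST-Vif; retest series ran down from 100 µM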
# Beta2AR agonist: beta2AR agonists driving receptor internalization, primary screen, cell-based, FAP fluorogen, flow cytometry | Am2.2-beta2AR cells; reference of the scale not given here | response, % (concentration not given with the values) | 340,000 tested, 0.43% active | Beta-2 adrenergic receptor (Homo sapiens), P07550;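 active means response above a set limit, near 3 SD of response in nonfluorescent compounds, cut at about 42% in these data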;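 further: stock transfer was 100 nL into about 11 µL; a reference agonist was the positive control; negative values mostly stem from fluorescent compounds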
# Target sequence (P07550 whole entry, looked up): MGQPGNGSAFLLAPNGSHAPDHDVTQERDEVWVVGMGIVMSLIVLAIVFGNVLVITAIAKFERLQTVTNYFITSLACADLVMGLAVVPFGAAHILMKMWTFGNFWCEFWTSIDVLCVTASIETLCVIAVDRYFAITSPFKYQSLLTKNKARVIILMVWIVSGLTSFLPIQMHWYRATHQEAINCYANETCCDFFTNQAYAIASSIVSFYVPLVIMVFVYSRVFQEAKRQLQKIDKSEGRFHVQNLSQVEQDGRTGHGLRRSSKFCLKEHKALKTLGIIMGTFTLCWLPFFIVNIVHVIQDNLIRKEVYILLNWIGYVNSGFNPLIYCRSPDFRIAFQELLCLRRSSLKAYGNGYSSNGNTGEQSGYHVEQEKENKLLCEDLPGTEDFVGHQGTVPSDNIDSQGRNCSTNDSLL
# The depositor's hits bear a star; ? = inconclusive; nt = not tested or not shown.
# A first look, 2 compounds:
SMILES,A1 inh,LANA-H2B inh,E coli growth,HNF4A DNA FP,UCH37 inh,Vif A3G,Beta2AR agonist
FC(F)(F)c1cnc(NNC(=S)Nc2cccnc2)c(Cl)c1,-0.6,0.2,0.65,0.0,2.6,0%,-2
Cc1ccccc1OCC(=O)Nc1ccccc1-c1ccccc1NC(=O)COc1ccccc1C,-0.4,-1.4,0.71,-0.3,1.1,nt,-3

# The listing (from the top)
SMILES,A1 inh,LANA-H2B inh,E coli growth,HNF4A DNA FP,UCH37 inh,Vif A3G,Beta2AR agonist
FC(F)(F)c1cnc(NNC(=S)Nc2cccnc2)c(Cl)c1,-0.6,0.2,0.65,0.0,2.6,0%,-2
Cc1ccccc1OCC(=O)Nc1ccccc1-c1ccccc1NC(=O)COc1ccccc1C,-0.4,-1.4,0.71,-0.3,1.1,nt,-3
O=C(Cc1ccc([N+](=O)[O-])cc1)c1ccccc1,nt,nt,0.72,1.8,-0.2,1%,-41
O=c1nc2n(c3sc4c(c13)CCCC4)C(CBr)CS2 (stereo not drawn),-0.1,1.2,0.73,-3.4,1.9,-5%,-14
CSc1nc2ccc(S(=O)(=O)N(C)C)cc2s1,0.1,3.1,0.72,4.3,1.3,-1%,-18
CC(C)N(C(=O)CN1CCN(S(=O)(=O)c2ccc(Br)s2)CC1)C(C)C,1.3,1.4,0.66,1.3,3.3,-3%,-3
CN(C)c1c(F)cc(C(=O)NCc2ccccc2)cc1F,1.8,1.6,0.63,-2.3,1.0,?,-3
Cc1ccc(C(=O)N/N=C2\CCCc3ccccc32)c(C)c1,-1.0,3.0,nt,5.3,nt,-12%,13
CCn1nnc(-c2ccccc2NS(=O)(=O)c2ccc(S(=O)(=O)N3CCCCCC3)cc2)n1,0.2,0.4,0.73,-2.6,4.6,2%,-5
CCC1CCCCN1C(=O)CCS(=O)(=O)c1ccc2c(c1)CCN2C(C)=O (stereo not drawn),1.4,1.4,0.68,0.6,2.0,nt,-7
O=C(CCCCn1c(=O)[nH]c2ccsc2c1=O)NCCc1ccccc1,1.4,2.5,0.67,-0.4,0.1,-1%,-10
Cn1c(CN2CCCCC2)nc2cc(NC(=O)c3ccc(F)cc3)ccc21,-6.7,-0.7,0.7,-3.0,1.6,-1%,-3
CC(=O)c1cccc(OCC(O)CN2CCN(C(=O)c3ccco3)CC2)c1 (stereo not drawn),0.4,6.0,0.7,-1.2,6.1,nt,-3
Cc1c(OC(C)C(=O)N[C@@H](Cc2ccccc2)C(=O)O)ccc2c3c(c(=O)oc12)CCCC3 (stereo partly drawn),0.2,3.6,0.74,-1.7,-52,nt,-2
Nc1c(CO)nnn1-c1ccccc1,-0.2,2.8,0.65,-0.3,-2.9,18%,-6
O=C(COc1ccc2ccc(=O)oc2c1)Nc1ccc(N2CCCCC2)cc1,1.4,2.2,0.69,5.7,-165,2%,2
CC(C)=C1C2CCC1C(C(=O)NCc1ccccc1)C2C(=O)O (stereo not drawn),-1.1,-2.2,0.71,1.4,2.2,-10%,-4
O=C(COC(=O)Cc1cn2ccsc2n1)NCc1ccc2c(c1)OCO2,-0.3,1.8,0.71,2.2,1.0,-1%,-2
COc1ccc(CCNC(=O)CCOc2cc(C)ccc2C)cc1OC,-1.0,9.6,0.66,-1.4,4.8,-1%,2
COc1ccccc1-c1nc(C#N)c(N2CCN(c3cccc(Cl)c3)CC2)o1,-0.5,1.1,0.75,-1.0,-155,?,-7
CCOC(=O)C1C(c2ccccc2)NC(=S)NC1(C)O (stereo not drawn),1.7,-1.9,0.71,-1.3,7.5,?,-2
Cc1onc(-c2ccccc2)c1C(=O)N/N=C/c1cc2c(cc1Cl)OCO2,0.3,-0.9,nt,-2.2,nt,14%,-8
CC(C(=O)NCC1CCCO1)n1cc([N+](=O)[O-])cn1 (stereo not drawn),-0.8,2.9,0.7,1.6,3.6,6%,-2
CC1=NNC(=O)c2ccccc2O1,0.3,-0.8,0.69,-1.3,0.6,?,0
CCOC(=O)c1c(C)[nH]c(C(=O)N/N=C\c2ccccc2Cl)c1C,0.0,0.9,nt,0.1,nt,nt,-6
SMILES,A1 inh,LANA-H2B inh,E coli growth,HNF4A DNA FP,UCH37 inh,Vif A3G,Beta2AR agonist
c1ccc(-c2nn[nH]n2)cc1,0.7,-6.1,0.67,6.3,5.1,15%,-4
O=C(CCn1c(=O)oc2ccc(Cl)cc21)N1CCN(c2ccccc2)CC1,0.6,-0.4,0.66,-2.5,0.5,10%,-16
Oc1ccc(Cl)cc1C1=NNC(c2cccs2)C1 (stereo not drawn),-0.1,-1.4,0.54,9.8,-1.6,-1%,13
CC(C(=O)NCc1ccco1)n1ccc2cc(S(=O)(=O)N3CCCCC3)ccc21 (stereo not drawn),0.0,-5.3,0.65,0.5,-0.7,-8%,10
CSCCC(NC(=O)c1ccc(Cl)cc1Cl)C(=O)NCC(c1cccs1)N(C)C (stereo not drawn),nt,nt,0.68,-0.8,-0.4,nt,-7
Cc1ccc(C(C(=O)NCC2CCCO2)N(C(=O)c2snc(C(N)=O)c2N)c2ccc(C)c(C)c2)o1 (stereo not drawn),0.1,6.4,0.65,2.2,-33,nt,0
Cc1ccc(Nc2cc(C)nc3nc(C)nn23)cc1,1.6,-1.0,nt,-3.7,nt,nt,5
Cc1ccc(C(=O)Cc2cc3ccccc3oc2=O)c(C)c1,-0.9,4.3,0.67,1.6,3.2,-10%,-4
O=C(Nc1ccc(Cl)cc1C(=O)NCc1cccnc1)c1ccco1,-0.2,1.2,0.72,2.5,0.9,6%,-5
N#C/C(=N/Nc1ccccc1F)C(=N)N1CCOCC1,0.4,2.0,nt,-6.3,nt,-3%,1
COC(=O)Cc1c(C)c2ccc(OCC(=O)N3CCCC3)c(C)c2oc1=O,-0.2,-3.3,0.64,-6.3,-179,nt,-6
O=C(CCCn1c(=S)[nH]c2ccsc2c1=O)NCCc1ccccc1,0.2,-3.6,0.67,-0.2,2.8,nt,-4
COc1ccc(OC)c(NC(=O)c2ccno2)c1,-0.9,11,0.71,-1.6,4.9,nt,-3
CCCc1cc(NCCCn2ccnc2)n2nc(C)c(-c3ccccc3)c2n1,-0.4,-3.4,0.64,0.7,-21,4%,2
O=C(C1=C(O)C(=O)N(Cc2ccco2)C1c1cccc(Cl)c1)c1ccco1 (stereo not drawn),-0.1,-1.4,0.62,-0.9,8.0,nt,7
COc1ccc(-n2nc(C(=O)NCC(=O)NC3CCCC(C)C3C)c3ccccc3c2=O)c(OC)c1 (stereo not drawn),-0.3,-9.2,0.66,1.0,-0.8,nt,-5
CCC(C)NCCOc1ccc(C(C)(C)c2ccccc2)cc1 (stereo not drawn),1.4,14*,0.66,0.1,5.4,nt,8
Cc1ccc(Cn2ccc(O)c(Cc3ccccc3)c2=O)cc1,1.0,-0.4,0.71,4.0,0.9,4%,-3
CCCCN(C(=O)CNC(=O)c1cccs1)C(C(=O)NC1CCCC1)c1ccncc1 (stereo not drawn),-0.5,2.5,0.74,1.9,0.3,-6%,-10
COc1ccc(-c2cc(C(=O)N3CCCCC3)no2)cc1OC,-2.4,1.9,0.68,2.7,3.3,29%,-3
Cc1cccc(CCNC(=O)c2cccc(N3CCCC3=O)c2)c1,-7.3,1.2,0.68,0.9,1.8,nt,6
COc1ccc(CC(=O)N[C@@H]2c3ccccc3CC[C@@H]2OCc2ccccc2)cc1,nt,nt,0.73,-2.1,0.5,-6%,-1
CC(=O)Nc1ccc(S(=O)(=O)Nc2nc(CN3CCOCC3)nc3sc4c(c23)CCCC4)cc1,-0.2,-3.9,0.67,11,-77,1%,-4
COc1ccccc1/C=N/N(C(C)=O)c1nc(-c2ccc(F)cc2)cs1,-4.8,-0.6,nt,8.7,nt,-2%,3
O=C(NNc1c2ccccc2nc2ccccc12)C12CC3CC(CC(C3)C1)C2,0.2,5.4,0.67,1.6,3.1,nt,45*
SMILES,A1 inh,LANA-H2B inh,E coli growth,HNF4A DNA FP,UCH37 inh,Vif A3G,Beta2AR agonist
C=CCC[C@@H](Cc1ccc(F)cc1)C(=O)OC[C@H](C)NC(=O)[C@@H](CC=C)CC(=O)N[C@@H](CO)Cc1ccccc1,-0.4,2.0,nt,-0.3,-0.3,nt,5
COC(=O)C(Cc1ccccc1)NC(=O)c1ccc(NS(=O)(=O)c2ccc3[nH]c(=O)[nH]c3c2)cc1 (stereo not drawn),0.9,29*,0.69,0.2,2.8,27%,6
O=C(Nc1c(Cl)ccc2nsnc12)c1cccnc1,0.2,-4.7,0.72,1.4,2.8,nt,-2
COc1ccc(CCC(=O)N(C)CC(=O)Nc2ccc(Cl)c(C(F)(F)F)c2)cc1,-0.9,-127,0.65,-1.7,2.2,nt,9
CC(=O)Nc1cccc(NC(=S)Nc2ccc(F)cc2F)c1,0.2,-1.2,0.68,5.1,-0.1,8%,-6
COc1ccc(/C=N/Nc2nc(Nc3ccccc3)nc(N3CCCCC3)n2)c(OC)c1,0.7,-5.2,nt,-2.5,nt,-3%,1
O=C(CN1C(=O)NC2(CCOc3ccccc32)C1=O)c1ccc[nH]1 (stereo not drawn),0.2,-0.2,0.68,-2.6,3.5,nt,4
O=C(OCCOc1ccc(Cl)cc1)c1cc(S(=O)(=O)N2CCCCC2)ccc1N1CCOCC1,nt,nt,0.69,-2.5,3.5,nt,16
Cc1cc(Br)cc(/C=N/NC(=O)c2ccc3c(c2)OCO3)c1O,0.6,-2.4,nt,0.4,nt,nt,4
CSc1cccc(CN2CCN(CCC(C)C)C(CCO)C2)c1 (stereo not drawn),-0.6,1.9,0.69,1.0,0.2,-1%,-4
Cc1ccc2sc(NNC(=O)c3cc(-c4cccs4)nc4ccccc34)nc2c1C,0.3,-1.5,nt,nt,nt,-11%,nt
O=C(CSc1nnc(N2CCOCC2)n1-c1cccc(F)c1)N1CCN(c2ccccn2)CC1,1.3,-6.0,0.68,3.5,2.6,-3%,-5
CCCCCCCCCCOC(=O)Cn1c(COc2cccc(OC)c2)[n+](C)c2ccccc21,-0.4,6.1,nt,5.6,nt,nt,-19
O=c1cc(Cn2ccnc2)c2cc(O)ccc2o1,-0.7,-1.2,0.67,3.4,3.1,2%,-8
O=S(=O)(Nc1ccc2cn[nH]c2c1)c1ccc(Cl)cc1,0.5,-3.3,0.67,2.8,3.3,nt,3
COc1ccc(NC(=O)COc2ccc(/C=C/c3cc[n+](C)cc3)cc2OC)cc1,0.4,-20,0.69,-0.8,-36,nt,5
CCC(OC(=O)c1cccs1)C(=O)NCc1ccc(C)cc1 (stereo not drawn),0.6,-4.7,0.72,-0.3,-0.6,nt,-2
O=C(COC(=O)C1CCN(S(=O)(=O)c2ccc3c(c2)OCCO3)CC1)Nc1cc(C(F)(F)F)ccc1Cl,0.5,1.4,0.7,-1.2,3.6,nt,2
O=C(CSc1ccccc1)NC1CCCCCCC1,0.5,-7.5,0.68,1.6,3.0,nt,-2
O=C(CSc1nc2ccccc2s1)N1N=C(c2cccs2)CC1c1ccc(F)cc1 (stereo not drawn),-0.4,2.9,0.71,7.3,-39,-6%,-10
CC/C(=N\NC(=S)Nc1ccc(OC)cc1)c1ccc(OC(F)F)cc1,0.2,5.9,nt,3.1,nt,12%,1
COc1ccc(CCNC(=O)CN2C(=O)CCSc3ccccc32)c(OC)c1,-0.8,-4.4,0.72,9.4,1.6,-4%,-3
COc1ccc(NC(=O)c2cc(C3CC3)nc3c2cnn3C(C)C)cc1OC,-1.4,1.5,0.67,-3.7,-1.6,10%,8
COC(=O)c1c(NC(=O)c2ccccc2)sc(Cc2ccccc2)c1C,-0.2,-4.7,0.7,2.8,-147,-6%,2
